# Screening data as filed in PubChem.
# FGF22 binding = binders of human FGF22 protein, primary screen, FGF22 synaptogenesis inhibitor project, biophysical, thermal shift, single point; actives 1.5% (n = 340,000); recombinant FGF22 thermal shift, SYPRO orange fluorescence; percent of sucrose octasulfate shift, DMSO zero; AID 651658, 2012; Fibroblast growth factor 22 (Homo sapiens), Q9HCT0; calls only at 9.99 µM;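 active = melting point raised past a set limit in the mean and every replicate; three in four hits are not shown here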
# Target sequence (Q9HCT0 whole entry, looked up): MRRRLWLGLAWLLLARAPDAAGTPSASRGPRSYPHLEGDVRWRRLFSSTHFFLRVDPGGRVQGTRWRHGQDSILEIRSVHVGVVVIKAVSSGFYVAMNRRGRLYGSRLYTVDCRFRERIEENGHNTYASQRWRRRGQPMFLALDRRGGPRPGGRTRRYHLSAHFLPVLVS
# AF4-AF9 inh = inhibitors of AF4 peptide binding to AF9, primary screen, biochemical, AlphaScreen, biotin-AF4 peptide, FLAG-AF9, single point. Protein AF-9 (Homo sapiens), P42568. inhibition, % at 10 µM. actives 0.47% (n = 350,000). AID 651704, 2012;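 active = every replicate reaching a set inhibition limit, whatever the replicate mean, cut at about 25% in these data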;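 also: 0% = plate neutral control median and 100% = total signal loss; the record names both 10 and 1 µM as test concentration; the first replicate is given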
# Target sequence (P42568 whole entry, looked up): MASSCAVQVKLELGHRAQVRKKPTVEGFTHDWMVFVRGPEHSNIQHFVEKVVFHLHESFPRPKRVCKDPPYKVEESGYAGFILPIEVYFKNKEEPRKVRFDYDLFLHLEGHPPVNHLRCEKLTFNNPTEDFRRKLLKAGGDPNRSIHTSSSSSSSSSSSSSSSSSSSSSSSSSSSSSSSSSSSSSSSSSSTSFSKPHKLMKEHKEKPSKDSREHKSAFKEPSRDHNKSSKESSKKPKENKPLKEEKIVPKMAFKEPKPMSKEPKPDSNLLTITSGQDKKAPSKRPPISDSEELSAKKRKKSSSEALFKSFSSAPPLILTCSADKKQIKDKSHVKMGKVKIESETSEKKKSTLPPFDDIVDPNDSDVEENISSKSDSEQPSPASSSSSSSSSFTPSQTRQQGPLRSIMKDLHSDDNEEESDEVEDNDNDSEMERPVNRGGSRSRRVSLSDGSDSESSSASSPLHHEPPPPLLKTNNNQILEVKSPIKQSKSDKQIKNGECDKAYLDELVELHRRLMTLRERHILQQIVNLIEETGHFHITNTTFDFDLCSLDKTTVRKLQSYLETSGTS
# * hit, by the source's call; i = inactive; x = no result given. An excerpt; count on the stated rates, not on these rows.
SMILES,FGF22 binding,AF4-AF9 inh
O=C(C[C@@H]1CC[C@@H]2[C@H](COC[C@@H](O)CN2Cc2ccc(C(F)(F)F)cc2)O1)NCCc1ccccc1,i,-0.3
C/C=C/c1ccc2c(c1)O[C@H](CN(C)C(=O)c1cccc(F)c1)[C@H](C)CN([C@H](C)CO)S2(=O)=O,i,8.4
CNC[C@H]1Oc2ccc(NC(=O)CCCN(C)C)cc2C(=O)N([C@H](C)CO)C[C@H]1C,i,-1.2
CN1c2ccc(C#Cc3cccc(F)c3)cc2[C@H]2[C@H](CCN2S(=O)(=O)c2ccccc2F)[C@@H]1CO,i,0.1
Cc1noc(C)c1S(=O)(=O)N(C)C[C@H]1OCc2ccccc2-c2c(n(C)c3ccccc23)C(=O)N([C@@H](C)CO)C[C@H]1C,i,1.2
C[C@@H]1CCCCO[C@H](CN(C)C(=O)Nc2ccccc2)[C@@H](C)CN([C@H](C)CO)C(=O)c2cc(NC(=O)CCC(F)(F)F)ccc2O1,i,-2.4
CO[C@@H]1CN(C)C(=O)c2ccc(NC(=O)C3CCC3)cc2OC[C@H](C)N(Cc2ccncc2)C[C@H]1C,i,-0.9
CC(C)CC#Cc1ccc2c(c1)O[C@@H](CN(C)S(C)(=O)=O)[C@@H](C)CN([C@@H](C)CO)S2(=O)=O,i,4.3
C[C@@H]1CN([C@H](C)CO)C(=O)Cc2cc(NS(=O)(=O)c3ccccc3)ccc2O[C@@H]1CN(C)Cc1ccc(Oc2ccccc2)cc1,i,1.7
C[C@@H]1CN([C@H](C)CO)C(=O)Cc2cc(NS(=O)(=O)c3cn(C)cn3)ccc2O[C@@H]1CN(C)S(=O)(=O)c1ccc(F)cc1,i,-0.4
C[C@H]1CN([C@@H](C)CO)C(=O)c2cc(NS(=O)(=O)c3cccs3)ccc2O[C@H]1CN(C)S(=O)(=O)c1ccccc1,i,-3.2
C[C@H](CO)N1C[C@H](C)[C@@H](CN(C)Cc2ccc(C(=O)O)cc2)Oc2ccc(NC(=O)Cc3cn(C)c4ccccc34)cc2CC1=O,i,0.8

# Looked up by compound from above (2):
SMILES,FGF22 binding,AF4-AF9 inh
CC(C)CC#Cc1ccc2c(c1)O[C@@H](CN(C)S(C)(=O)=O)[C@@H](C)CN([C@@H](C)CO)S2(=O)=O,i,4.3
CNC[C@H]1Oc2ccc(NC(=O)CCCN(C)C)cc2C(=O)N([C@H](C)CO)C[C@H]1C,i,-1.2

# Carrying on.
SMILES,FGF22 binding,AF4-AF9 inh
CCCNC(=O)C[C@H]1CC[C@H]2[C@@H](COC[C@H](O)CN2Cc2ccncc2)O1,i,-2.6
CCN1[C@H](C(=O)NCc2ccccc2)[C@@H](CO)[C@@H]2Cn3c(ccc(-c4cccnc4)c3=O)[C@@H]21,i,2.4
COc1ccc(-c2cccc(-c3nc(C(=O)N(C)C)cc4c3[C@@H](CCO)N([S@](=O)C(C)(C)C)C4)c2)cc1,i,-3.1
CN(C)C(=O)c1cccc(-c2ccc([C@H]3[C@H](CO)N4C(=O)CN(C(=O)Cc5ccccc5)C[C@@H]34)cc2)c1,i,0.9
C[C@@H]1CCCCO[C@@H](CN(C)S(=O)(=O)c2cn(C)cn2)[C@@H](C)CN([C@@H](C)CO)C(=O)c2cc(NS(=O)(=O)c3ccc(F)cc3)ccc2O1,i,-1.3
COc1ccc(NC(=O)Nc2ccc3c(c2)C(=O)N([C@H](C)CO)C[C@@H](C)[C@@H](CN(C)C(=O)Nc2cccc4ccccc24)O3)cc1,i,1.4
CC(C)NC(=O)N(C)C[C@@H]1Oc2ccc(NC(=O)NC3CCCCC3)cc2C(=O)N([C@H](C)CO)C[C@H]1C,i,-1.6
COCC(=O)Nc1ccc2c(c1)C(=O)N(C)C[C@H](OC)[C@H](C)CN(Cc1ccncc1)[C@H](C)CO2,i,2.1
C[C@@H]1CN([C@@H](C)CO)C(=O)c2cccc(NS(=O)(=O)c3ccccc3)c2O[C@@H]1CN(C)C(=O)Nc1ccc(C(F)(F)F)cc1,i,0.4
CO[C@H]1CN(C)C(=O)c2cc(NC(C)=O)ccc2OC[C@H](C)N(C(=O)c2ccccc2F)C[C@H]1C,i,2.6
CCCNC(=O)[C@H]1[C@H](CO)[C@H]2Cn3c(cccc3=O)[C@@H]1N2C(=O)C1CCC1,i,-0.1
NCC[C@H]1CC[C@@H](NC(=O)c2ccccc2F)[C@@H](CO)O1,i,-3.6
CN1CCN(C(=O)C[C@@H]2CC[C@@H]3[C@H](COC[C@@H](O)CN3C(=O)Nc3ccc(F)cc3)O2)CC1,i,-5.0
O=C(NCc1ccccc1)[C@@H]1[C@@H](CO)[C@@H]2Cn3c(cccc3=O)[C@H]1N2C(=O)Cc1ccccn1,i,2.2
Cn1cnc(CCNC(=O)C[C@H]2CC[C@@H]3[C@H](COC[C@H](O)CN3C(=O)Nc3ccc(F)cc3)O2)c1,i,-0.7
C[C@@H]1CN([C@@H](C)CO)C(=O)Cc2cc(NC(=O)CCN3CCOCC3)ccc2O[C@H]1CN(C)Cc1ccccc1,i,11.3
O=C(C[C@@H]1CC[C@@H]2[C@H](COC[C@H](O)CN2C(=O)Nc2cccc(Cl)c2)O1)NCC1CCCCC1,i,-1.5
CN(C)C(=O)c1ccc(-c2ccc([C@@H]3[C@H](CO)N4CCCCN(CCC(F)(F)F)C[C@@H]34)cc2)cc1,i,1.0
Cc1noc(C)c1S(=O)(=O)N(C)C[C@H]1OCCCC[C@H](C)Oc2ccc(NC(=O)Nc3cccc4ccccc34)cc2C(=O)N([C@H](C)CO)C[C@H]1C,i,-8.6
N#C[C@H]1N[C@H](CO)[C@@H]1c1ccc(C2=CCCCC2)cc1,i,2.2
C[C@H](CO)N1C[C@H](C)[C@H](CN(C)C(=O)Nc2cccc3ccccc23)OCCCC[C@H](C)Oc2ccc(NS(=O)(=O)c3cccs3)cc2C1=O,i,4.0
NC(=O)c1ncn2c(=O)n(CCCl)nnc12,i,-8.3
CS(=O)(=O)N1CC2(C1)[C@H](c1ccccc1)[C@@H](CO)N2CCC(F)(F)F,i,-1.7
COc1ccc(CNC(=O)C[C@@H]2CC[C@@H]3[C@H](COc4ccc(NC(C)=O)cc4C(=O)N3C)O2)cc1,i,1.4
Cc1noc(C)c1NC(=O)N(C)C[C@H]1Oc2ccc(NS(=O)(=O)c3ccc(F)cc3)cc2CC(=O)N([C@@H](C)CO)C[C@H]1C,i,-0.5
C[C@H]1CN([C@@H](C)CO)S(=O)(=O)c2ccc(C#CC3CCCC3)cc2O[C@H]1CN(C)C(=O)Cc1ccccc1,i,1.2
O=C(Nc1ccccc1)N1C[C@@H]2[C@H](c3ccccc31)[C@@H](CO)N2C(=O)Cc1ccccn1,i,0.5
C[C@@H]1CN([C@H](C)CO)C(=O)Cc2cc(NC(=O)c3ccncc3)ccc2O[C@H]1CN(C)Cc1ccc2c(c1)OCO2,i,0.0
CCC(=O)N(C)C[C@@H]1Oc2ncc(C#Cc3ccc(OC)cc3)cc2C(=O)N([C@H](C)CO)C[C@H]1C,i,1.9
C[C@@H]1CN([C@@H](C)CO)C(=O)c2cc(C#Cc3ccncc3)cnc2O[C@@H]1CN(C)C(=O)c1ccccc1F,i,-6.2
C[C@H]1CCCCO[C@H](CN(C)C)[C@@H](C)CN([C@@H](C)CO)C(=O)c2cc(NS(=O)(=O)c3cn(C)cn3)ccc2O1,i,-8.7
COc1ccc(S(=O)(=O)Nc2ccc3c(c2)C(=O)N([C@@H](C)CO)C[C@@H](C)[C@@H](CN(C)C(=O)c2ccncc2)OCCCC[C@H](C)O3)cc1,i,-0.9
CCCNC(=O)N1CC2(C1)CN(C(=O)Nc1ccc(F)cc1)[C@H](CO)c1[nH]c3cc(OC)ccc3c12,i,-1.2
O=C(C[C@H]1C[C@@H]2c3cc(NC(=O)CC4CC4)ccc3O[C@@H]2[C@@H](CO)O1)NCc1ccc(-c2ccccc2)cc1,i,2.4
N#C[C@H]1[C@H](c2ccccc2-c2ccccc2)[C@@H](CO)N1C(=O)NC1CCCC1,i,-1.7
C[C@@H]1CCCCO[C@H](CN(C)Cc2ccncc2)[C@@H](C)CN([C@H](C)CO)C(=O)c2cc(NS(=O)(=O)c3ccccc3)ccc2O1,i,-5.5
O=C(C[C@@H]1C[C@@H]2c3cc(NC(=O)Cc4ccncc4)ccc3O[C@@H]2[C@@H](CO)O1)NCc1cccnc1,i,1.0
O=S(=O)(c1ccccc1)N1CCCCN2[C@H](CO)[C@@H](c3ccc(-c4cncnc4)cc3)[C@H]2C1,i,-5.6
CCC(=O)N1CC2(CN(Cc3cccnc3)C2)c2c(n(C)c3cc(OC)ccc23)[C@@H]1CO,i,-2.2
COc1ccc(CNC(=O)N(C)C[C@@H]2OCc3ccccc3-c3ccccc3C(=O)N([C@@H](C)CO)C[C@@H]2C)cc1,i,-5.8
CN1C(=O)c2cc(NC(=O)c3cccs3)ccc2OC[C@@H]2O[C@H](CC(=O)N3CCCCC3)CC[C@H]21,i,-0.5
C[C@H]1CN([C@@H](C)CO)C(=O)Cc2cc(NS(=O)(=O)c3ccc(F)cc3)ccc2O[C@H]1CN(C)Cc1ccc(C(F)(F)F)cc1,i,0.2
CC(C)NC(=O)Nc1ccc2c(c1)C(=O)N([C@H](C)CO)C[C@@H](C)[C@H](CN(C)C(=O)Nc1ccc(F)cc1)OCCCC[C@@H](C)O2,i,-2.1
C[C@@H]1CCCCO[C@@H](CN(C)Cc2ccc3c(c2)OCO3)[C@@H](C)CN([C@@H](C)CO)C(=O)c2cc(NC(=O)C3CCCCC3)ccc2O1,i,1.9
C[C@H](CO)N1C[C@H](C)[C@@H](CN(C)Cc2ccc3c(c2)OCO3)Oc2c(NC(=O)Nc3cccc4ccccc34)cccc2C1=O,i,4.4
C[C@H]1CCCCO[C@H](CN(C)C(=O)Nc2ccc(F)cc2)[C@@H](C)CN([C@@H](C)CO)C(=O)c2cc(NS(=O)(=O)c3cn(C)cn3)ccc2O1,i,0.1
C[C@@H]1CN([C@H](C)CO)S(=O)(=O)c2ccc(-c3cccc(C#N)c3)cc2O[C@H]1CN(C)C(=O)c1cccnc1,i,0.5
C[C@@H]1CN([C@H](C)CO)C(=O)c2cc(NS(C)(=O)=O)ccc2O[C@@H]1CN(C)S(=O)(=O)c1cn(C)cn1,i,-3.0
C[C@H]1CN([C@@H](C)CO)S(=O)(=O)c2ccc(C#Cc3ccccc3)cc2O[C@H]1CN(C)C(=O)Nc1ccccc1,i,1.6
C[C@H](O)C#Cc1cnc2c(c1)C(=O)N([C@H](C)CO)C[C@@H](C)[C@H](CN(C)C(=O)Cc1ccccn1)O2,i,-2.3
C[C@H]1CCCCO[C@@H](CN(C)Cc2ccc3c(c2)OCO3)[C@@H](C)CN([C@@H](C)CO)C(=O)c2cc(NC(=O)Nc3ccc(F)cc3)ccc2O1,i,8.8
Cc1noc(C)c1NC(=O)N(C)C[C@H]1Oc2ncc(C#CC3CC3)cc2C(=O)N([C@H](C)CO)C[C@H]1C,i,1.3
C[C@@H]1CN([C@H](C)CO)C(=O)c2c(c3ccccc3n2C)-c2ccccc2CO[C@@H]1CN(C)C(=O)[C@@H]1CCCN1C,i,-0.5
C[C@H](O)C#Cc1ccc2c(c1)O[C@@H](CN(C)Cc1cccnc1)[C@@H](C)CN([C@H](C)CO)S2(=O)=O,i,-1.6
C[C@H](CO)N1C[C@H](C)[C@H](CN(C)Cc2ccc(-c3ccccc3)cc2)Oc2c(NC(=O)C3CCOCC3)cccc2C1=O,i,0.2
CCCCCCCCN1C(=O)[C@@H](CC(=O)NCC23CC4CC(CC(C4)C2)C3)C[C@@]2(C(=O)OC)C1=C[C@H](C1CCCC1)O[C@@H]2C,i,0.6
CCC(=O)Nc1ccc2c(c1)C(=O)N(C)C[C@H](OC)[C@H](C)CN(C(=O)c1ccc(F)cc1)[C@@H](C)CO2,i,0.6
C[C@@H]1CCCCO[C@H](CN(C)CC2CCCCC2)[C@H](C)CN([C@H](C)CO)C(=O)c2cc(NC(=O)c3ccncc3)ccc2O1,i,3.0
CS(=O)(=O)N1[C@H](C#N)[C@H](c2ccc(C#CC3CCCCC3)cc2)[C@H]1CO,i,4.5
COC(=O)Cc1nnn2c1[C@H](C)[C@H](c1ccccc1[N+](=O)[O-])OCC2,x,-1.2
COc1ccc(NC(=O)Nc2cccc3c2O[C@@H](CN(C)C(=O)Nc2ccc4c(c2)OCO4)[C@@H](C)CN([C@@H](C)CO)C3=O)cc1,i,1.5
C[C@H]1CN([C@@H](C)CO)C(=O)Cc2cc(NC(=O)Nc3ccc(F)cc3)ccc2O[C@@H]1CN(C)S(=O)(=O)c1cccs1,i,2.6

# Of the compounds above, these contain an aryl methoxy group.
SMILES,FGF22 binding,AF4-AF9 inh
COc1ccc(-c2cccc(-c3nc(C(=O)N(C)C)cc4c3[C@@H](CCO)N([S@](=O)C(C)(C)C)C4)c2)cc1,i,-3.1
COc1ccc(NC(=O)Nc2ccc3c(c2)C(=O)N([C@H](C)CO)C[C@@H](C)[C@@H](CN(C)C(=O)Nc2cccc4ccccc24)O3)cc1,i,1.4
COc1ccc(CNC(=O)C[C@@H]2CC[C@@H]3[C@H](COc4ccc(NC(C)=O)cc4C(=O)N3C)O2)cc1,i,1.4
CCC(=O)N(C)C[C@@H]1Oc2ncc(C#Cc3ccc(OC)cc3)cc2C(=O)N([C@H](C)CO)C[C@H]1C,i,1.9
COc1ccc(S(=O)(=O)Nc2ccc3c(c2)C(=O)N([C@@H](C)CO)C[C@@H](C)[C@@H](CN(C)C(=O)c2ccncc2)OCCCC[C@H](C)O3)cc1,i,-0.9
CCCNC(=O)N1CC2(C1)CN(C(=O)Nc1ccc(F)cc1)[C@H](CO)c1[nH]c3cc(OC)ccc3c12,i,-1.2
CCC(=O)N1CC2(CN(Cc3cccnc3)C2)c2c(n(C)c3cc(OC)ccc23)[C@@H]1CO,i,-2.2
COc1ccc(CNC(=O)N(C)C[C@@H]2OCc3ccccc3-c3ccccc3C(=O)N([C@@H](C)CO)C[C@@H]2C)cc1,i,-5.8
COc1ccc(NC(=O)Nc2cccc3c2O[C@@H](CN(C)C(=O)Nc2ccc4c(c2)OCO4)[C@@H](C)CN([C@@H](C)CO)C3=O)cc1,i,1.5
